Screening data from PubChem BioAssay.
KAT2A inh: qHTS Assay for Inhibitors of GCN5L2; GCN5L2 HAT assay, ThioGlo1 CoA-SH fluorescence; Potency, µM (series often up to 58.9 µM), without a hit: top-dose activity change, negative = inhibition, most hits filed as inhibitors; 0.21% of 390,000 active
Target sequence (Q92830 whole entry, looked up): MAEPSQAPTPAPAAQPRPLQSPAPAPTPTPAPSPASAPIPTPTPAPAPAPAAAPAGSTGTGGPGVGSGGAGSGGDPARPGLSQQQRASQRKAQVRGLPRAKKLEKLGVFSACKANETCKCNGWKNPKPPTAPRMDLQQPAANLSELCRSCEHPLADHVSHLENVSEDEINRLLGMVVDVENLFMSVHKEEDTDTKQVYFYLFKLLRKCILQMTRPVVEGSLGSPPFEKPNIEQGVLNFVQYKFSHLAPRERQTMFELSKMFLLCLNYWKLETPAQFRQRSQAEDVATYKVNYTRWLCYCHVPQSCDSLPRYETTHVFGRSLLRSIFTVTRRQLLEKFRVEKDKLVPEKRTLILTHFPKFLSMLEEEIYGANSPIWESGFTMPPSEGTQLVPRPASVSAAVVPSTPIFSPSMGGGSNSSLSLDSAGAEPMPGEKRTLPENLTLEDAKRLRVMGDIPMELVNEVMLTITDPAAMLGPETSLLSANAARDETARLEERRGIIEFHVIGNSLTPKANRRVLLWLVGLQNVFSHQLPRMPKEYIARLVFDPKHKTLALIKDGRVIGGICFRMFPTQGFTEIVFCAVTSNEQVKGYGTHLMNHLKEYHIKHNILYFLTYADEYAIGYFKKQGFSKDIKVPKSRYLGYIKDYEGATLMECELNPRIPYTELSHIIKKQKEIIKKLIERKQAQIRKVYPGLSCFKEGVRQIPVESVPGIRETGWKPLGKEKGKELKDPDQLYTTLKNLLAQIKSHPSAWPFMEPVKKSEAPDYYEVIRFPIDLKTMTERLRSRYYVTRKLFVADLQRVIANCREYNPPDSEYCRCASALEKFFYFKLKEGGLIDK
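qHTS, 1536-well. 20nM enzyme, pH 7.5 HEPES/EDTA/Tween-20 buffer; 15 min compound preinc., RT. Start: 75uM H3(1-25), 70uM AcCoA, 50uM ThioGlo1. Read Ex340/Em540 at t=0 (autofluorescence flag) and t=20 min.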
N370S GC: qHTS Assay for Inhibitors and Activators of N370S glucocerebrosidase as a Potential Chaperone Treatment of Gaucher Disease | Potency, µM (top dose mostly 59.4 µM), for inactives: top-dose activity change, negative = inhibition, most hits filed as inhibitors | 0.092% of 330,000 active | N370S GC spleen homogenate, 4MU-glucoside fluorescence | Lysosomal acid glucosylceramidase (Homo sapiens), P04062;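 note: 0% = full enzyme activity and -100% = no enzyme basal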
* marks the source's active call; other numbers are inactive results; ? = inconclusive; · = no result given; & = joins results of further samples; [ ] = remark or other dose. Calls come from the whole dose curve; as a rule, active = well fitted curve in the direction sought with a large enough effect; inconclusive = small, poorly fitted or top-dose-only effect, or another doubt; inactive = no such curve, though single readings can be large; an effect the other way counts as inactive or inconclusive. Unless noted, % is set by controls: 0 for no effect and ±100 for the full control effect; potency is the fitted concentration of half-maximal effect.

SMILES	KAT2A inh	N370S GC
O[C@@H]1CN(C2CCCCC2)CC[C@H]1N1CCN(CCc2ccccc2)CC1	-4%	-5%
COc1ccc(CCN2C(=O)CN=C2Nc2ccc(F)cc2)cc1OC	0%	-2%
CC(C)=CCC/C(C)=C/CNC(=O)C[C@H]1C[C@H](C(=O)N2CCOCC2)[C@@]2(C)c3[nH]c4ccc(Cl)cc4c3CCN2C1=O	-17%	·
O=C(O)c1ccccc1SC1CC(=O)N(c2ccccc2)C1=O (stereo not given)	-1%	-9%
COc1cc(NC(=O)CC2NCCNC2=O)cc(OC)c1 (stereo not given)	-9%	-9%
O=C(Nc1cccc(F)c1)Nc1ccc2c(c1)C(=O)OC2	1%	0%
COc1ccc(-c2noc(CN(C)S(=O)(=O)c3c(C)cc(C)cc3C)n2)cc1OC	-12%	·
COc1ccc(OC)c(C(=O)Cn2nnc3ccccc3c2=O)c1	-2%	4%
O=C(c1ccco1)N1CCN(c2nc(C(F)(F)F)nc3c2nnn3Cc2ccccc2)CC1	-9%	0%
Cc1cc(NC(=O)c2cccnc2)ccc1Br	-10%	-9%
COc1ccc(C(=O)Nc2ccc(Cl)cn2)cc1S(=O)(=O)N1CCCC1	2%	·
CCNc1nc(SCCOc2ccccc2)nc(N(C)C)n1	-8%	16%
Cc1ccc(C(=O)N/N=C/c2ccc(S(=O)(=O)O)o2)c(Cl)c1	13%	4%
Cc1cc(C)n(-c2ccc3nnc(C)n3n2)n1	0%	0%
N#Cc1ncc(C(F)(F)F)cc1Oc1cccnc1	-7%	-7%
O=C(CN1c2cccc3cccc(c23)S1(=O)=O)Nc1ccccc1	-14%	-8%
CCC(Oc1ccc(Br)cc1)C(=O)N1CCN(c2ncccn2)CC1 (stereo not given)	-25%	1%
COc1cccc(C(=O)CSc2nnnn2C)c1	-3%	-5%
Cc1ccc(C)c(N(C)C(=O)C2CCN(c3ncnc4c3nc3n4CCCCC3)CC2)c1	-8%	·
CC(C)(C)C(=O)N1CCN(c2nc3ccccc3s2)CC1	-7%	-5%
CCn1cnc2c(=O)oc3ccc(S(=O)(=O)N4CCN(c5cc(C)ccc5C)CC4)cc3c21	-8%	·
O=C(Nc1cccc(-c2nnc(-c3ccco3)o2)c1)c1ccccc1	-14%	-5%
COc1cc2[nH]c(C(=O)N3CCC(Cc4ccccc4)CC3)cc2c(OC)c1OC	-13%	6%
Cc1cc(C)cc(NC(=O)c2ncn(-c3ccccc3)n2)c1	-2%	·

Quoted at random: 2 entries already listed
SMILES	KAT2A inh	N370S GC
Cc1cc(NC(=O)c2cccnc2)ccc1Br	-10%	-9%
O[C@@H]1CN(C2CCCCC2)CC[C@H]1N1CCN(CCc2ccccc2)CC1	-4%	-5%

Next section
SMILES	KAT2A inh	N370S GC
COc1cccc(-n2nc(C(=O)N3CC(C)CC(C)C3)c3ccccc3c2=O)c1 (stereo not given)	-6%[0.501 µM]	1%
COc1ccc(C(C)=O)cc1CSCCC(=O)O	?	10%
COc1ccc(C(=O)NNS(=O)(=O)c2ccccc2)cc1	1%	7%
COc1cc(/C=N/NC(=S)Nc2cccc(C(=O)O)c2)cc(OC)c1OC	34%	0%
Cc1c(O)cc2c(c1O)C(=O)CC(c1ccccc1)O2 (stereo not given)	?	-2%
OCC[C@@H]1C[C@@H](O)[C@H](O)[C@@]2(Cc3ccccc3CCO2)O1	-7%	-2%
CC1CCCC(NC(=O)c2ccc3c(SCC(=O)O)c4c(nc3c2)CCC4)C1C (stereo not given)	-5%	6%
COC(=O)Nc1ccc(S(=O)(=O)N2CCC(C(=O)N(C)C3CCCCC3)CC2)cc1	1%	-4%
COc1ccc(NC(=O)CN(C)C(=O)c2c(-c3ccccc3Cl)noc2C)cc1	-1%	-5%
CC(C)NC(=O)NC(=O)CSc1nncn1C	-3%	5%
CCCCC(=O)Nc1ccc(NC(=S)NC(=O)CC(C)C)cc1OC	-5%	9%
Cc1ccc(NC(=O)CNC(=O)c2ccco2)cc1Cl	-1%	0%
Cn1cnnc1SC(C(=O)Nc1ccc(F)cc1)c1ccccc1 (stereo not given)	-11%	7%
CC(=O)NC(CCS(C)(=O)=O)C(=O)Nc1ccc(Oc2ccccc2)cc1 (stereo not given)	-1%	-3%
O=C(Nc1cccc([N+](=O)[O-])c1)c1ccncc1	3%	6%
CCCCCOc1ccccc1C(=O)NCC(=O)O	2%	5%
Cc1ccc(NS(=O)(=O)c2ccc(NC(=O)[C@@H]3CCCC[C@@H]3C(=O)O)cc2)c(C)c1	-27%	-5%
CC(=O)c1ccc(N2CCN(C(=O)CN3C(=O)NC4(CCCCC4)C3=O)CC2)c(F)c1	-1%	·
COCC(=O)OCn1nnc2ccccc2c1=O	-3%	12%
COc1cc(/C=N/NC(=O)CC2(C)OCCCO2)ccc1OCc1ccc(Cl)cc1Cl	-7%	?
CCc1ccccc1N1CC23C=CC(O2)C(C(=O)O)C3C1=O (stereo not given)	3%	13%
O=C1/C(=C/c2cccnc2)Oc2cc(OS(=O)(=O)c3ccc(Cl)cc3)ccc21	-1%	4%
Cc1ccc(S(=O)(=O)N(C)CC(=O)OCC(=O)c2ccc3c(c2)NC(=O)CO3)cc1	-5%	·
Cc1ccc(NC(=O)C2CCCN2C(=O)OCc2ccccc2)cc1C (stereo not given)	-21%	4%
CCOc1ccc(CNC(=O)c2cc3c(s2)-c2ccccc2OC3)cc1	-10%	·
CCCn1c(N2CCN(C(=O)Nc3ccccc3)CC2)nc2ccccc21	9%	1%
O=C(NN1C(=O)C2C3C=CC([C@H]4CC34)[C@@H]2C1=O)c1ccc(Br)cc1 (stereo not given in full)	1%	?
CCCOc1ccc(C(=O)Nc2cccc(NC(=O)c3cccc(Cl)c3)c2)cc1	2%	·
O=C(Nc1ccc(N2CCN(C(=O)c3ccc(Cl)cc3)CC2)cc1)c1cc2ccccc2o1	?	22%
CN1CCC(OC(=O)COc2ccc(F)cc2)CC1	-4%	-6%
CN(Cc1ccccc1)C(=O)COc1ccc(Br)cc1Cl	3%	4%
Cc1cc(NC(=O)C(=O)NCc2cccc(Cl)c2)no1	-6%	16%
NC(=O)CC(NC(=O)Cc1ccc(Br)cc1)c1ccc(NCCc2cccc(F)c2)c([N+](=O)[O-])c1 (stereo not given)	-1%	0%
CCOC(=O)CN1C(=O)C(O)=C(C(C)=O)C1c1ccc(F)cc1 (stereo not given)	-10%	-6%
Cc1cc2c(cc(C(=O)OC(C(=O)NC3CCCCC3)C(C)C)n2C)o1 (stereo not given)	-5%	·
COc1c(OC(C)=O)ccc(/C=C/c2ccc3ccccc3n2)c1[N+](=O)[O-]	-6%	-8%
CCOc1ccc(CCNC(=O)Cc2nn[nH]n2)cc1OCC	-1%	-13%
CCOC(=O)C1=CN(CC)S(=O)(=O)NC1CCc1ccccc1 (stereo not given)	-4%	·
CCOC(=O)/C(=C\c1c[nH]c2ccccc12)NC(C)=O	-10%	4%
Cc1ccc(C)c(N2CCN(S(=O)(=O)c3ccc4c(c3)C(C)(C)C(=O)N4C)CC2)c1	?	7%
COc1ccc(CNC(=O)c2cc(-c3cc(C)cc(C)c3O)n[nH]2)cc1	-4%	25%
CC(=O)c1ccc(-c2ccc(C(=O)N(C)c3c(N)n(Cc4ccccc4)c(=O)[nH]c3=O)o2)cc1	-1%	-6%
COc1ccc(/C=N/n2c(-c3cccs3)n[nH]c2=S)cc1	?	5%
CCOC(=O)C1=C(CC)Nc2ccccc2N/C1=N\S(=O)(=O)c1ccc(C(=O)OCC)cc1	-2%	4%
Cc1cc(-n2c(C)cc(C(=O)COc3cccnc3[N+](=O)[O-])c2C)no1	-2%	-27%
CCCC(=O)Nc1ccc(OCC(O)CNC(C)C)c(C(C)=O)c1 (stereo not given)	-1%&-3%	13%&0%
COc1ccc(NC(=O)N2CCCC(CNS(=O)(=O)c3cccs3)C2)c(C)c1 (stereo not given)	-2%	-19%
COc1ccc(NC(=O)CC2C(=O)N(c3cccc(OC)c3)C(=O)N2CCC(C)C)cc1 (stereo not given)	0%	-14%
O=C(CN1C(=O)c2ccccc2S1(=O)=O)N1CCN(c2ccccc2)CC1	1%	0%
CCOc1ccc(-c2nnc(SCC(=O)N3CCN(c4ccccc4)CC3)o2)cc1	-1%	7%
O=C(CCSc1nnc(-c2ccco2)o1)Nc1ccccc1	-6%	10%
COc1ccc(NC(=O)CSCC(=O)NC2(C)CCS(=O)(=O)C2)cc1 (stereo not given)	-1%	1%
Cc1cccc(S(=O)(=O)N2CN(Cc3ccco3)c3nc4ccccc4nc32)c1	-1%	12%
COc1ccccc1N1CCN(C(=O)c2ccccc2N(C)S(=O)(=O)c2ccc(C)cc2)CC1	-4%	-3%
O=C(Cn1nc(C(=O)O)c2ccccc2c1=O)Nc1ccc2c(c1)OCO2	0%	13%
COc1ccc(N(C(=O)c2ccco2)S(=O)(=O)c2ccc(F)cc2)cc1	-2%	13%
Cc1ccc(/C(COc2ccccc2O)=N\O)cc1	-12%	7%
COC(=O)COc1ccc(/C=C2\SC(=O)N(CC(=O)Nc3ccccc3F)C2=O)cc1	?	-2%
O=C(N1CCCCC1)N1CCN(c2ccc(Cl)cc2)CC1	-3%	6%
Cc1cc(C)n(-c2cc(=O)n(C)c(=O)n2C)n1	-5%	-9%

The listing continues.
SMILES	KAT2A inh	N370S GC
CCOc1cc(N2CCOCC2)c(OCC)cc1NC(=O)CN1CCCC(C)C1 (stereo not given)	1%	2%
COc1ccc(CCNC(=O)CN2CCN(S(=O)(=O)c3ccc(Cl)cc3)CC2)cc1OC	-4%	-5%
COC(=O)C1=C(C)N(C)C(=S)N(C)C1c1cccc(Br)c1 (stereo not given)	-17%	-1%
CCC(C)(C)C(=O)Nc1nnc(CCc2ccccc2)s1	0%	-4%
COc1cc(NC(=O)Cc2ccc(S(=O)(=O)N3CCOCC3)s2)c(OC)cc1Cl	-2%	-6%
O=C(O)CSc1nnc(-c2ccc(O)cc2)o1	-3%	·
O=C(NC(=S)Nc1cccc(Cl)c1Cl)C1CC1	?	1%
Cc1nnc(SCC(=O)NCc2ccccc2Cl)[nH]c1=O	-6%	-16%
COc1ccc(C)cc1N(CC(=O)NC(C)c1ccccc1)S(C)(=O)=O (stereo not given)	-22%	-12%
O=C(c1ccc2c(c1)CCN2S(=O)(=O)c1ccc(Cl)cc1)N1CCN(c2ccccc2)CC1	-4%	·
COc1ccc(C(=O)NCC(=O)N/N=C/c2cccnc2)cc1	-4%	-14%
COc1ccc(N2CC(NS(=O)(=O)c3cccnc3)CC2=O)cc1 (stereo not given)	-5%	-14%
Cc1csc2c(N3CCC(C(=O)O)CC3)ncnc12	-14%	-15%
Nc1nnc(SCC(=O)Nc2ccc(Cl)cc2)s1	0%	·
COc1ccc(-c2sc3ccc(OC)cc3c2C#CCCO)cc1	-10%	4%
COc1cccc(NC(=O)NNS(=O)(=O)c2ccc(OC)cc2OC)c1	0%	1%
CCOC(=O)c1c(C)[nH]c(C)c1C(=O)CSc1nncs1	-2%	1%
Cc1ccc(-n2cnc3c(sc4nccc(N(C)C)c43)c2=O)cc1	-15%	-10%
Cc1ccc(NC(=O)C2OCCc3ccccc32)cc1Cl (stereo not given)	-16%	-14%
CCOC(=O)N1CCN(S(=O)(=O)c2ccc(C)cc2)C1c1ccc(OC)cc1 (stereo not given)	-14%	7%
CCOC(=O)c1[nH]c(C)c(C(=O)OCC(=O)NC(C)c2ccc(F)cc2)c1C (stereo not given)	-1%	·
COc1cc(NC(=O)CCNC(=O)Cn2cnc3sc4c(c3c2=O)CCCC4)cc(OC)c1OC	-2%	3%
COc1ccc(Cn2c(C3CC3)nc3ccc(NC(=O)C4CC4)cc3c2=O)cc1	-8%	14%
NS(=O)(=O)c1cccc(NC(=O)COC(=O)C2(c3cccc(F)c3)CCCC2)c1	-2%	9%
COc1cccc(CNC(=O)CN(C)S(=O)(=O)c2ccc3[nH]c4c(c3c2)CCCC4)c1	-14%	·
O=C(C1CCN(S(=O)(=O)c2cccc3nsnc23)CC1)N1CCCCC1	-14%	-23%
Cc1nc(Cl)c(S(N)(=O)=O)c(C)c1Cl	2%	3%
Cc1cc(C(=O)COC(=O)CCc2nc3ccccc3s2)c(C)n1C	-2%	5%

14 entries already listed, ordered by molar mass, low to high:
SMILES	KAT2A inh	N370S GC
Cc1nc(Cl)c(S(N)(=O)=O)c(C)c1Cl	2%	3%
Cc1csc2c(N3CCC(C(=O)O)CC3)ncnc12	-14%	-15%
Nc1nnc(SCC(=O)Nc2ccc(Cl)cc2)s1	0%	·
CCOC(=O)c1c(C)[nH]c(C)c1C(=O)CSc1nncs1	-2%	1%
Cc1ccc(-n2cnc3c(sc4nccc(N(C)C)c43)c2=O)cc1	-15%	-10%
COc1ccc(-c2sc3ccc(OC)cc3c2C#CCCO)cc1	-10%	4%
COc1ccc(N2CC(NS(=O)(=O)c3cccnc3)CC2=O)cc1 (stereo not given)	-5%	-14%
Cc1cc(C(=O)COC(=O)CCc2nc3ccccc3s2)c(C)n1C	-2%	5%
COc1cccc(NC(=O)NNS(=O)(=O)c2ccc(OC)cc2OC)c1	0%	1%
CCOC(=O)c1[nH]c(C)c(C(=O)OCC(=O)NC(C)c2ccc(F)cc2)c1C (stereo not given)	-1%	·
CCOC(=O)N1CCN(S(=O)(=O)c2ccc(C)cc2)C1c1ccc(OC)cc1 (stereo not given)	-14%	7%
NS(=O)(=O)c1cccc(NC(=O)COC(=O)C2(c3cccc(F)c3)CCCC2)c1	-2%	9%
COc1cccc(CNC(=O)CN(C)S(=O)(=O)c2ccc3[nH]c4c(c3c2)CCCC4)c1	-14%	·
COc1cc(NC(=O)CCNC(=O)Cn2cnc3sc4c(c3c2=O)CCCC4)cc(OC)c1OC	-2%	3%

Not all compounds are listed; most or all hits stand in other tables.
